# From PubChem BioAssay
# Yeast UUG start – yeast start codon fidelity modulation | S. cerevisiae UUG-firefly luciferase reporter, luminescence/redox ratio | activity score, % at 18.7 µM | 350,000 compounds, 0.13% hits;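 active = replicate mean at a twofold rise or more, about +100% in these data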;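 also: firefly luciferase made from a UUG start codon reports start codon fidelity; reporter light over untreated wells divided by growth signal over untreated wells; some hits fall short of that in this replicate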
# CSC inhib – blocks cancer stem cells; cancer stem cell-like cells viability, luminescence; AID 2717; inhibition, % at 7.5 µM; 300,000 compounds, 1.1% hits;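 active = mean at 75% or more and at least half the replicates too; inconclusive = mean and replicates disagree; tested in HMLE shEcad cells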;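 also: 0% = median of negative and 100% = median of positive control wells; the first replicate is given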
# PABP polyA inh – PABP-poly(A) binding inhibition; PABP-poly(A) RNA binding, fluorescence polarization; inhibition, % at 35 µM; 290,000 compounds, 1% hits; AID 2014;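 active = 50% or more with normal probe brightness, or confirmed in later tests; inconclusive = above 50% with abnormal brightness, or retests that disagree; inactive = below 50% or failed in later tests; about a fifth of its hits are not listed in these tables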;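 also: calls also rest on retests at 20 µM and on dose response follow-up; controls were probe without protein and protein plus probe with vehicle; some compounds called inactive have numbers as strong as hits; many hits fall short of the cut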
# Target sequence (P11940 whole entry, looked up): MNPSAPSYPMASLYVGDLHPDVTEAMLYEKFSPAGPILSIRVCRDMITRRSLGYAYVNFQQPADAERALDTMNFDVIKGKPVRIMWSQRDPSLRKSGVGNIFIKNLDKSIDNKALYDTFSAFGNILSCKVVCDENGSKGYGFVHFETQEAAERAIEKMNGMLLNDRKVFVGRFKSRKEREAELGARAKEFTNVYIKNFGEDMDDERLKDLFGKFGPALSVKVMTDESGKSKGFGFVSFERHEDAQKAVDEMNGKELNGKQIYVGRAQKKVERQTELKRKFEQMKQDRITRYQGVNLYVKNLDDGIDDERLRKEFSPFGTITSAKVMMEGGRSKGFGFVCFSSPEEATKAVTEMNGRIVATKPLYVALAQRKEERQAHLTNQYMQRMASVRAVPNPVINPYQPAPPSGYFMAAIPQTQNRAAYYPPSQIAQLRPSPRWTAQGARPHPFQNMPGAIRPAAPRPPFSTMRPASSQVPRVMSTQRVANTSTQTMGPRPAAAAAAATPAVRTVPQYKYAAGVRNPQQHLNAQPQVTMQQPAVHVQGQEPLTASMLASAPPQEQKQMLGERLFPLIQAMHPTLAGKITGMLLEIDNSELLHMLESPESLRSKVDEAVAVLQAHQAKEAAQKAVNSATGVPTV
# HIV Env fusion – blocks HIV Env-driven cell-cell fusion; HeLa-JRFL Env/CEM21 cell fusion, luciferase; inhibition, % at 12.3 µM; 360,000 compounds, 1.1% hits;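 active = mean replicate inhibition score of at least 50 and every replicate individually at or above 50; inconclusive = only one of the two criteria met; inactive = mean below 50 and not all replicates reaching 50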;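 also: 0% = plate neutral controls and 100% = maraviroc near 300 nM; one replicate is shown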
# eIF4H inh – inhibitors of RNA binding by human eIF4H. Q15056. eIF4H fluorescence polarization binding assay. inhibition, % at 35 µM. 290,000 compounds, 0.94% hits. AID 2012;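 active = 50% or more with normal probe brightness, or confirmed in later tests; inconclusive = above 50% with abnormal brightness, or retests that disagree; inactive = below 50% or failed in later tests; about a fifth of its hits are not listed in these tables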;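 also: calls also rest on retests at 20 µM and on dose response follow-up; 0% = protein and probe with vehicle and 100% = probe without protein; strong numbers were not always called active; many hits fall short of the cut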
# MT1-MMP act inh – inhibitors of human MT1-MMP activation; AID 651647; P50281; 360,000 compounds, 0.061% hits; HT1080 RFP-PRO-GFP cells, GFP/RFP ratio fluorescence, overnight; percent of plate control window, DMSO zero; GFP/RFP ratio change, % at 20 µM;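 active = GFP/RFP ratio change of at least 30% with cell ATP level not reduced by more than half and red fluorescence within 50% of control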; also: strong numbers were not always called active
#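 Test system: HT1080 cells expressing an RFP-PRO-GFP fluorescent reporter construct / Compound dosing: single-point 20 µM compound, 1% DMSO / Schedule: cells overnight before dosing, compound overnight, 37 °C, 5% CO2 / Evaluation: GFP/RFP fluorescence ratio / Control set: DMSO and RFP-L50D-GFP cell wells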
# Rce1 inhib – blocks yeast Ras-converting enzyme. 290,000 compounds, 0.27% hits. calls only. yeast membranes, quenched prenylated peptide cleavage fluorescence. Q03530. AID 2563;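 active = fall in fluorescence gain of 50% or more versus controls, with final raw signal at or below 3038400; inconclusive = same 50% fall but final raw signal above 3038400; inactive = fall in fluorescence gain under 50%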;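 also: plate controls were neutral control wells for no effect and wells lacking membranes for full effect; tested at 10 µM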
# MT1-MMP act inh RFP – recorded beside MT1-MMP act inh, whose call it bears; RFP signal change, %; measured here: RFP expression control read;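 0 = vehicle wells; hits needed this value within 50% of zero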
# Numbers without * were called inactive; i = inactive; ? = inconclusive; nt = not tested or not shown; & = joins results of further samples. Only part of the results is shown. The share of hits here may be higher or lower than overall.
SMILES,Yeast UUG start,CSC inhib,PABP polyA inh,HIV Env fusion,eIF4H inh,MT1-MMP act inh,MT1-MMP act inh RFP,Rce1 inhib
[N-]=[N+]=NCc1cn2cccnc2n1,nt,-13,3,3,7,-2,4,i
O=C(COC(=O)Cc1ccccc1)Nc1ncc(Cl)cc1Cl,-30,-11,13,nt,3,1,4,i
CCOc1ccccc1-n1c(O)c(C=NCCCN(CC)CC)c(=O)[nH]c1=O,-4,-2,-6,nt,13,2,5,i
CCN(CC)C(=O)c1ccc(NC(=O)CN2CCc3cc(OC)c(OC)cc3C2)cc1,-7,-2,0,19,-1,4,5,i
CC(=O)N1CCC(N2CCCC(C(=O)c3cccc(Cl)c3)C2)CC1 (stereo not given),-7,9,-12,29,-8,0,4,i
Cc1cccc(OCC(=O)N2CCN(Cc3ccncc3)CC2)c1,-1,5,10,nt,-6,1,2,i
CNCC1(c2ccccc2)CCCC1,-17,5,-3,-9,14,-1,4,i
CCn1c(O)c(N=Nc2ccc(S(=O)(=O)N3CCOCC3)cc2)c(=O)n(CC)c1=S,nt,15,0,-5,-2,-1,2,i
COc1ccc2c(c1O)C13CCN(C)C(C2)C1CCC(=O)C3 (stereo not given),-9,-7,nt,4,nt,-2,0,i
Cc1ccc2c(c1)CC1(CN2C)C(=O)NC(=O)N(CCC2=CCCCC2)C1=O (stereo not given),5,-16,14,nt,8,-1,3,i
O=C1C2C3CCC(O3)C2C(=O)N1CCO (stereo not given),-1,3,-1,-12,-7,14,3,i
O=C(Cc1ccccc1)NC(Cc1ccc(Cl)cc1)C(=O)O (stereo not given),nt,-9,3,-17,-4,1,1,i
COc1ccc(-n2c(O)c(C(C)=NCCc3c[nH]c4ccccc34)c(=O)[nH]c2=O)cc1,-15,-4,-6,1,-2,1,-2,i
Fc1ccc(Cn2nnnc2CN2CCC(n3nnc4cc(C(F)(F)F)ccc43)CC2)cc1,-15,1,4,26,-2,3,-14,i
CCN1C(=O)C(=C2C=C(C)N(Cc3ccco3)C(C)=C2)C(=O)N(CC)C1=S,nt,nt,-1,-34,32,4,3,i
CN(C)/C=C1/C(=O)NC(=O)N(CCNc2ncc(C(F)(F)F)cc2Cl)C1=O,nt,-13,-15,-13,37,-14,4,i
Cc1ccc2n1Cc1cnnn1-c1ccccc1-2,-10,nt,nt,32,nt,1,3,nt
Cc1cc(N2C(=O)C3CCCN3C2c2sccc2C)no1 (stereo not given),-22,-1,-3,-19,2,0,3,i
CC(=O)O[C@H]1C(=O)[C@@]2(C)C([C@H](OC(=O)c3ccccc3)[C@]3(O)C[C@H](O)C(C)=C1C3(C)C)[C@]1(OC(C)=O)CO[C@@H]1C[C@H]2O (stereo not given in full),-4,1,-2,nt,8,5,5,i
CC(=O)c1cccc(OCC(=O)N2CCN(CC(=O)Nc3cccc(F)c3)CC2)c1,-2,nt,nt,-1,nt,-4,2,nt
CN(C)C=C1C(=O)N(C2CCCCC2)C(=O)N(C2CCCCC2)C1=O,-18,18,7,nt,31,0,1,i
COc1ccc(-n2nnnc2C(CCc2ccccc2)N2CCC(n3c(=O)[nH]c4ccccc43)CC2)cc1 (stereo not given),-13,nt,nt,14,nt,-21,-31,nt
COC(=O)C1=C(c2ccc(OC)c(OC)c2)C[C@@H]2CC[C@H]1N2C(=O)NCc1cc(C)oc1C(F)(F)F,1,-6,nt,-49,nt,-1,-5,nt
CC(C(=O)N1CCC2(CC1)OCCO2)C1Sc2ccccc2NC1=O (stereo not given),-13,10,-8,nt,5,-1,0,i
Cc1cccc(NC(=O)N2CC3CC(C2)c2cccc(=O)n2C3)c1 (stereo not given),-20,2,0,-17,-2,-2,-1,i
Oc1c(Br)cc(-c2ccccc2)cc1Br,-34,nt,nt,-2,nt,3,0,nt
C1CCC2S[C@H]3CCCCC3NC2C1 (stereo not given in full),-8,-12,3,4,6,1,3,i
CC(C)(C)C(=O)N1Cc2cc(-c3cccc(F)c3)ccc2-n2nncc2C1,-21,nt,nt,-3,nt,-2,-2,nt
Cc1cccc(CN2CCCN(Cc3ccc(Cl)cc3)S2(=O)=O)c1,nt,15,-6,12,2,1,1,i
OCCCCO,-15,-13,nt,nt,nt,-2,7,nt
Cc1cc(=O)oc2cc(OCC(=O)N3CCC(C(=O)O)(c4ccccc4)CC3)ccc12,12,-6,22,nt,-3,-2,3,i
O=c1c2cc(Br)ccc2[nH]c(=S)n1-c1ccccc1,nt,-4,-6,6,-12,2,0,i
CN1c2ccc([N+](=O)[O-])cc2CC2(C(=O)NC(=O)N(c3ccccc3)C2=O)C1c1ccccc1 (stereo not given),nt,13,8,23,-11,-19,-20,i
O=C1NC(=O)C(=Cc2cc(Cl)ccc2OCc2ccc(C(=O)O)cc2)C(=O)N1,nt,2,-1,12,12,2,0,i
CC(C)C12CN3CCN(CC(C3)C1O)C2 (stereo not given),-17,-5,-6,-67,-2,-4,2,nt
CCOc1cc2c(cc1OCC)-n1cccc1C(c1ccc(C)cc1C)NC2 (stereo not given),-7,-9,1,-31,-4,-1,-3,i
CCOC(=O)Cn1cc([N+](=O)[O-])nc1[N+](=O)[O-],nt,-6,-4,nt,4,3,0,i
CN1C(=O)NC(=O)[C@]2(Cc3ccccc3N3CCN(c4ccccc4)CC32)C1=O (stereo not given in full),-3,nt,8,-9,-3,-8,-3,i
COCCCn1c(-c2ccc(OC)cc2)cc(C(=O)NC2CCCCCCC2)c1C,nt,19,7,nt,7,-24,-23,i
COc1ccc(-n2c(O)c(C=NCc3ccc4c(c3)OCO4)c(=O)[nH]c2=O)cc1,nt,-16,-6,-41,-6,-6,3,i
O=c1[nH]c(=O)n(-c2cccc(Cl)c2)c(O)c1C=NCCN1CCCCC1,nt,2,4,nt,6,-2,7,i
CC1CN=C(Nc2ccc(N(C)C)cc2)S1 (stereo not given),-21,-17,7,-4,-8,6,-5,i
COc1ccc(N2C(=O)CC(N3CC=C(c4ccccc4)CC3)C2=O)cc1 (stereo not given),-18,-2,-16,-9,0,-3,8,i
CC(=O)c1cn(CCCOc2ccccc2)c2ccccc12,-8,nt,1,?,3,-1,-21,i
Nc1cc(Cl)cc(C(=O)O)c1Cl,-4,-15,nt,nt,nt,0,8,nt
O=C(Cc1ccccc1)N1CCN(C/C=C/c2ccccc2)CC1,nt,nt,-4,nt,-4,1,3,i
COCC(C)OC(=O)c1c(N)n(Cc2ccco2)c2nc3ccccc3nc12 (stereo not given),4,-4,4,nt,?,-69,11,i
Cc1ccc(N(C)C(=O)Oc2cccc3cccnc23)cc1,3,-10,-1,-69,-4,-4,2,i

# An excerpt of these results, bar-delimited:
canonical_smiles | Yeast UUG start | CSC inhib | PABP polyA inh | HIV Env fusion | eIF4H inh | MT1-MMP act inh | MT1-MMP act inh RFP | Rce1 inhib
CN1C(=O)NC(=O)[C@]2(Cc3ccccc3N3CCN(c4ccccc4)CC32)C1=O (stereo not given in full) | -3 | nt | 8 | -9 | -3 | -8 | -3 | i
COCCCn1c(-c2ccc(OC)cc2)cc(C(=O)NC2CCCCCCC2)c1C | nt | 19 | 7 | nt | 7 | -24 | -23 | i
COc1ccc(-n2c(O)c(C=NCc3ccc4c(c3)OCO4)c(=O)[nH]c2=O)cc1 | nt | -16 | -6 | -41 | -6 | -6 | 3 | i
O=c1[nH]c(=O)n(-c2cccc(Cl)c2)c(O)c1C=NCCN1CCCCC1 | nt | 2 | 4 | nt | 6 | -2 | 7 | i
CC1CN=C(Nc2ccc(N(C)C)cc2)S1 (stereo not given) | -21 | -17 | 7 | -4 | -8 | 6 | -5 | i

# Additional compounds follow.
SMILES,Yeast UUG start,CSC inhib,PABP polyA inh,HIV Env fusion,eIF4H inh,MT1-MMP act inh,MT1-MMP act inh RFP,Rce1 inhib
CC(=O)c1cn(Cc2ccccc2F)c2ccccc12,10,nt,8,20,-4,7,-26,i
CCC1(CCC(C)C)C(=O)NC(=S)NC1=O,-18,nt,nt,-4,nt,2,6,nt
CCOC(=O)C1C2NC(=O)N(Cc3ccccc3)C1(C)Oc1c(OC)cccc12 (stereo not given),-16,4,-13,-41,-3,-3,-2,i
CCC(=O)O[C@@H]1[C@@H](OC(C)=O)[C@@]2(O)C(C[C@H](O)C2(C)C)[C@](C)(O)[C@H]2CC[C@@H]3[C@@H](O)[C@]12C[C@@]3(C)O (stereo not given in full),-19,-4,-8,-1,-10,1,1,i
N#CCCn1cc(C(=O)NCc2ccccc2)c(-c2ccccc2)n1,nt,-4,4,8,3,1,1,i
N[C@@H](CCl)C(=O)O,-11,0,nt,-7,nt,0,1,i
CCc1cc2c(s1)NC(=O)CN=C2c1cccs1,-18,7,-2,-56,-2,-4,-6,i
O=[N+]([O-])c1ccc(N2CCNCC2)c2ncccc12,nt,nt,1,nt,-6,nt,nt,i
CCOC(=O)c1c(C=O)c2ccccc2n1Cc1ccccc1F,-10,20,6,-11,-6,-4,-2,i
c1ccc2[nH]c(CCNC3CCCCC3)nc2c1,-24,-14,1,-19,-7,-3,-1,i
COC1=C(OC)[C@]23CCc4ccc(OC)c(OC)c4[C@]2(CCN3C)CC1=O,-19,-4,nt,-35,nt,2,4,nt
Cc1nc2ccccc2c(=O)n1-c1cccc([N+](=O)[O-])c1,3,-10,-3,-17,-7,1,4,i
c1cncc(C2CCCCN2)c1 (stereo not given),-10,3,12,nt,-5,1,3,i
CSc1nnc([C@@H](N)Cc2ccccc2)o1,-14,1,-6,-10,3,3,4,i
O=C(CCCOc1ccc(Cl)cc1Cl)N1CCC2(CC1)OCCO2,-2,-7,-9,-27,2,1,-1,i
CCc1ccc(/C=C(/C#N)C(N)=S)cc1,nt,-19,-4,8,-7,0,2,i
CCOP(=O)(OCC)C1(O)C(=O)Nc2ccccc21 (stereo not given),nt,2,5,-6,-8,2,4,i
O=Cc1cn(Cc2ccccc2F)c2ccccc12,nt,-21,6,23,5,-9,-22,i
Cc1nn(Cc2ccccc2Cl)c(C)c1C(=O)NC1CCCc2ccccc21 (stereo not given),nt,-9,-10,-2,-10,2,3,i
CCCNC(=O)N1[C@H]2CC[C@@H]1C(C(=O)OC)=C(c1cc3ccccc3s1)C2,16,-10,nt,-5,nt,8,-10,i
CCOc1ccc(Br)c(C2(O)CC(C)N(C)CC2C)c1 (stereo not given),-10,5,2,nt,-7,-16,0,i
COc1cc(C=C2C(=O)NC(=O)NC2=O)ccc1OCc1ccc([N+](=O)[O-])cc1,-9,nt,32,-70,-3,3,0,nt
COc1ccc(-c2cc(-c3ccccc3)[n+](C)c(-c3ccccc3)c2)cc1,nt,-12,?,39,-12,-21,-32,i
NCCc1cc(O)c(O)cc1O,-8&77,nt,nt,38&15,nt,2&-1,-2&3,nt
CC(=O)N1CC(=O)Nc2ccc(C)cc2C1c1ccccc1 (stereo not given),-14,-3,10,-5,10,-3,3,i
COc1ccccc1CN1CCNCC1,-10,nt,nt,-6,nt,0,7,nt
Cc1cc(C)c(C(=O)CN2CCOCC2)c(C)c1,-6,18,2,nt,1,8,9,i
COc1cc2[nH]c(=O)n(-c3ccc(C)cc3)c(=O)c2cc1OC,-7,nt,1,-35,-10,0,4,i
CCC(C)n1c(C)cc(C(N)=O)c1C (stereo not given),-14,21,28,-16,-7,1,5,i
O=C(CN1CC(c2ccccc2)CC1=O)Nc1ccc(F)cc1 (stereo not given),-8,15,5,-6,-3,-2,-3,i
O=C1/C(=C/c2ccc3c(c2)OCO3)N2CCC1CC2,nt,12,0,35,7,0,-3,i
CCn1c(=O)cc(OCC(=O)N2CCN(Cc3ccc4c(c3)OCO4)CC2)c2ccccc21,-9,-5,3,22,-8,1,7,i
